Hedgehog cleavage – Hh protein inhibition, biochemical readout – plate reader, single concentration, primary screen (AID 588832). Biochemical plate reader assay, Hedgehog inhibition; stronger effect = higher value. inhibition, % at 30.3 µM. 8,000 tested, under 10 active; in the data active = inhibition from about 57%;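 note: 0% = neutral control wells and 100% = positive control wells; cholesterol-driven self-cleavage of fly hedgehog protein by fluorescence polarization; read one hour after cholesterol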
* marks the source's active call; other numbers are inactive results.

SMILES	Hedgehog cleavage
COc1ccc(N2C(=O)C3CCCN3C2c2ccccc2OC)cc1 (stereo unspecified)	2.2
CNC(=O)c1sc2nc(-c3ccc(OC)cc3)cn2c1C	1.8
Cc1ccc2[nH]c(=O)c3cc(C(=O)N4CCN(C(=O)c5ccco5)CC4)sc3c2c1	4.2
COc1ccc(NC(=O)c2cc(S(=O)(=O)N3CCCC3)cn2C)cc1Cl	7.0
CCC(=O)Nc1nc2c(s1)COc1ccccc1-2	0.9
Cc1cc(C(=O)Nc2ccccc2C#N)n(-c2ccccc2)n1	21.6
CC(=O)N1CCc2c(sc3c2c(=O)n(-c2ccccc2)c(=O)n3CC(=O)NCC2CCCO2)C1 (stereo unspecified)	1.7
COC(=O)c1cc(S(=O)(=O)N2CCN(Cc3ccccc3)CC2)cn1C	1.7
Cc1c(CCC(=O)NCCCN2CCCC2=O)c(=O)oc2c(C)c(O)ccc12	6.6
CN1C(=O)C(C)(C)c2cc(S(=O)(=O)N3CCCCCC3)ccc21	1.9
CCOc1ccc(NC(=O)CSc2nnc(Cn3c(=O)sc4ccccc43)n2C)cc1	6.5
Cc1c(NC(=O)c2ccco2)cccc1-c1nc2cccnc2s1	-4.4
CCCCSc1nc(N)c(NC(=O)c2ccco2)c(=O)[nH]1	7.3
COc1ccc(CCNC(=O)C(=O)NCC2OCCN2S(=O)(=O)c2ccc(OC)cc2)cc1 (stereo unspecified)	5.2
COc1ccc(N(CC(=O)N2CCCC(C)C2)S(=O)(=O)c2c(C)nn(C)c2C)cc1 (stereo unspecified)	3.4
Cc1cccc(OCC(=O)Nc2nnc(S(=O)(=O)N3CCCCC3)s2)c1	8.7
CCOC(=O)N1CCC(NC(=O)C2=C(C)C(=O)OC23CCC(C)CC3)CC1 (stereo unspecified)	5.4
COc1ccccc1N1CCN(C(=O)c2cc3c(s2)-c2ccccc2OC3)CC1	-1.7
CC(C)=CCCC1(C)C=Cc2c(ccc3c2[nH]c2cc(O)c(C)cc23)O1 (stereo unspecified)	1.7
O=c1[nH][nH]c(=O)c2cc([N+](=O)[O-])ccc12	14.3
CC(C)[C@H](NC(=O)N1CC(=O)Nc2ccccc21)C(=O)N1CCC[C@H]1C(=O)O	3.4
CC12C(=O)N(c3cccc4cccnc34)C(=O)C1C1C=CC2C1 (stereo unspecified)	8.7
O=C(O)CCC(=O)N1CCc2cc(S(=O)(=O)Nc3ccc4c(c3)OCCO4)ccc21	8.3
Cc1cccc(NC(=O)C2CCCN(S(=O)(=O)c3c(C)nn(C)c3C)C2)n1 (stereo unspecified)	0.0
COc1ccc(N2C(=O)N(Cc3ccc(C)cc3)c3ccccc3S2(=O)=O)cc1	8.4
Next compounds follow.
SMILES	Hedgehog cleavage
COc1ccc(-c2c(NC(=O)c3ccco3)oc3ccccc3c2=O)cc1OC	13.8
O=C(CSCC(=O)Nc1nc(-c2ccc3c(c2)OCO3)cs1)Nc1nccs1	7.1
CCn1c(C(=O)N2CCC(C(=O)NCc3cccs3)CC2)cc2sccc21	0.0
O=C(Nc1nnc(S(=O)(=O)N2CCOCC2)s1)c1cccc(F)c1	5.8
COc1ccc(OC)c(C2=NOC(C(=O)Nc3cc(C)nn3-c3ccccc3)C2)c1 (stereo unspecified)	1.6
CCOC(=O)N1CCC(N2Cc3cccc(C(=O)NC(C)c4ccc5c(c4)OCCO5)c3C2=O)CC1 (stereo unspecified)	19.2
Cc1ccc(CNC(=O)c2cc(S(=O)(=O)N3CCCC3)cn2C)cc1	3.5
Cc1ccc(S(=O)(=O)N(C)Cc2nc(-c3ccc(Br)cc3)no2)cc1	20.8
CCN1CCN(C(=O)c2ccc3c(c2)N(Cc2ccc(F)cc2)C(=O)c2ccccc2S3=O)CC1 (stereo unspecified)	14.9
CSC1=NCCN1C(=O)c1ccco1	7.3
Cc1cccc(NC(=O)c2cc(S(=O)(=O)N3CCCC3)cn2C)c1	6.8
COc1ccc(CNC(=O)COc2cc(O)c3c(c2)OC(C)(C)CC3=O)c(OC)c1	5.1
CCCCCCn1c(SCC(=O)OC)nc2c1c(=O)[nH]c(=O)n2C	5.1
COc1ccc(C2=NS(=O)(=O)N(C)C(C(=O)N(C)Cc3ccccc3)=C2)cc1	8.7
COc1ccc(N2C(=O)C3CCCN3C2c2cc(OC)c(OC)c(OC)c2)cc1 (stereo unspecified)	8.3
CCN(CC)CCNC(=O)c1cn(C)c2ccc(S(=O)(=O)N(C)C3CCCCC3)cc2c1=O	-2.6
N#Cc1nc(COc2ccccc2)oc1N1CCCCC1	17.4
CCCn1c(CNc2ccc(Br)cc2)nc2ccccc21	5.1
Cc1ccc(-c2[nH]c(-c3ccc(Cl)cc3)nc2SCC(=O)NCC2CCCO2)cc1 (stereo unspecified)	2.7
CCn1c(SC(C)C(=O)OC)nnc1-c1c[nH]c2ccccc12 (stereo unspecified)	1.8
COc1ccccc1N1CCN(C(=O)c2cccc(NC3=NC4CS(=O)(=O)CC4S3)c2)CC1 (stereo unspecified)	12.8
CCN(CC)c1ccc(NS(=O)(=O)c2cn(C)c(=O)n(C)c2=O)c(C)c1	12.8
CN1C(C(=O)Nc2cccc(O)c2)=CC(c2ccco2)=NS1(=O)=O	14.9
Cc1cccc(NC(=O)CCN2C(=O)c3ccccc3S2(=O)=O)c1C	5.8
CCOC(=O)c1c(C)c(-c2ccccc2)n(CC(=O)N2CCN(C)CC2)c1C	9.6

Random excerpt: 2 compounds from above, in no set order.
SMILES	Hedgehog cleavage
CCN(CC)c1ccc(NS(=O)(=O)c2cn(C)c(=O)n(C)c2=O)c(C)c1	12.8
COc1ccc(OC)c(C2=NOC(C(=O)Nc3cc(C)nn3-c3ccccc3)C2)c1 (stereo unspecified)	1.6

Next part
SMILES	Hedgehog cleavage
COc1ccc2[nH]cc(CCNC(=O)c3ccco3)c2c1	5.4
COc1ccc(C2CC(c3ccc(C)cc3)Nc3ncnn32)cc1 (stereo unspecified)	16.7
Cc1ccc(N(C)C(=O)N2CCN(c3ccccn3)CC2)cc1	1.8
CCN(Cc1ccccc1)C(=O)c1cc(S(=O)(=O)N2CCOCC2)cn1C	8.8
Cc1oc(-c2ccccc2)nc1CS(=O)CC(=O)N1CCc2ccccc2C1 (stereo unspecified)	0.0
COc1ccc(C(=O)N=c2sc3c(C)ccc(OC)c3n2C)cc1	5.5
CCc1nc(SCc2cccnc2)c2c(=O)n(C)c(=O)n(C)c2n1	0.0
COC1C(O)C(O)C(O)C(O)C1O (stereo unspecified)	7.2
COc1c(C)cccc1C(=O)Nc1cc(-c2nn3c(C)nnc3s2)ccc1C	-2.2
CCN1CCN(C(=O)Cn2ncc3ccsc3c2=O)CC1	5.0
O=C1CCC(=O)N(O)CCCCCNC(=O)CCC(=O)N(O)CCCCCNC(=O)CCC(=O)N(O)CCCCCN1	6.6
CCN(CC)S(=O)(=O)c1ccc(C(=O)Nc2nnc(C(C)C)s2)cc1	5.4
CC(CCC(=O)O)(c1ccc(O)cc1)c1ccc(O)cc1	7.1
Cn1c(=O)oc2cc(S(=O)(=O)Nc3cccc(F)c3)ccc21	20.8
Cc1onc(-c2ccccc2Cl)c1C(=O)NCc1ccc2c(c1)cc(C)n2C	-0.9
CC1CN(Cc2nc3c(c(=O)n(C)c(=O)n3C)n2Cc2cccc(Cl)c2)CC(C)O1 (stereo unspecified)	1.8
CCN1CCN(C(=O)C2CCN(Cc3nc(-c4cccc(Cl)c4)oc3C)CC2)CC1	8.3
CCCCN(C)C(=O)c1ccc2c(c1)N(CC)C(=O)c1ccccc1S2(=O)=O	4.6
O=C(Nc1ccc2c(c1)OCCO2)C1CCCN(S(=O)(=O)c2cccnc2)C1 (stereo unspecified)	5.0
Cc1ccc(-n2nnc3c(=O)n(CC(=O)NCc4ccccc4)cnc32)cc1	4.5
Cc1oc(-c2ccccc2F)nc1CS(=O)CC(=O)NCc1ccc2c(c1)OCO2 (stereo unspecified)	3.8
CN(Cc1ccccc1)C(=O)c1ccc(NC2=NC3CS(=O)(=O)CC3S2)cc1 (stereo unspecified)	5.1
CCCN1CCN(C(=O)c2cccc3c2C(=O)N(CCOC)C3)CC1	9.6
Cc1ccc2c(c1)NC(=O)C(CC(=O)NCc1cccnc1)O2 (stereo unspecified)	8.7
COC(=O)CN1C(=O)COc2ccc(Cl)cc21	16.7

Ordered by value in Hedgehog cleavage (low to high): some entries from above.
Molecule	Hedgehog cleavage
CCCCN(C)C(=O)c1ccc2c(c1)N(CC)C(=O)c1ccccc1S2(=O)=O	4.6
O=C1CCC(=O)N(O)CCCCCNC(=O)CCC(=O)N(O)CCCCCNC(=O)CCC(=O)N(O)CCCCCN1	6.6
COC1C(O)C(O)C(O)C(O)C1O (stereo unspecified)	7.2

Additional entries:
SMILES	Hedgehog cleavage
COc1ccc(-n2c(Cc3cccn3C)nnc2SCC(=O)NC2CCCC2)cc1	20.0
Cc1[nH]c2ccccc2c1Cc1nnc(SCC(N)=O)o1	15.4
CC1CCN(C(=O)CCC(=O)N2CC(C)Oc3ccccc32)CC1 (stereo unspecified)	8.7
COc1ccc(C2=NN(C(=O)CSC3=NN4CCCC(=O)N=C4S3)C(c3cccc(OC)c3OC)C2)cc1 (stereo unspecified)	3.6
Cn1c(=O)c2c(SCc3cccnc3)nc(CC(C)(C)C)nc2n(C)c1=O	3.4
C=CCn1c(SCC(=O)N2CCN(c3ccc(F)cc3)CC2)nnc1-c1cccs1	14.9
CCC1CCCCN1C(=O)CCn1c(=O)oc2ccccc21 (stereo unspecified)	7.7
Cc1ccc(NC(=O)c2cc(S(=O)(=O)N3CCc4ccccc43)cn2C)cc1	20.8
O=c1c(O)c(-c2ccccc2)oc2cc(O)cc(O)c12	4.9
COc1cc(NC(=O)COc2cc(O)c3c(c2)OC(C)(C)CC3=O)cc(OC)c1	3.5
COc1cccc(C2=NOC(C(=O)N3CCN(c4ccccc4)CC3)C2)c1OC (stereo unspecified)	9.5
Cc1n[nH]c(C)c1S(=O)(=O)N1CCCC(C(=O)NC2CCCCC2)C1 (stereo unspecified)	0.0
COc1ccc(C(=O)Nc2c(N)nc(SCC(=O)N3CCC(C)CC3)[nH]c2=O)cc1OC	7.0
Cc1cccc(NC(=O)Nc2ccc(C#N)cc2)n1	-1.8
Cn1c(C(=O)N2CCCCCC2)cc2c(=O)n(C)c3ccccc3c21	20.0
Cc1cc(O)c2c(c1)C(=O)[C@@]13Oc4c5c(c(O)c6c(O)cc(C)cc46)C(=O)C[C@H](O)[C@H]5[C@@H]1[C@@H](O)CC(=O)C3=C2O	-1.8
CCCCn1c(CCNC(=O)CCC)nc2ccccc21	3.6
Cc1ccc(Cn2ccc(NC(=O)c3cc(CC(C)C)on3)n2)cc1	5.2
Cc1csc(NC(=O)CSc2nnc(Cn3c(=O)sc4ccccc43)n2-c2ccccc2)n1	0.0
Cn1c(C(=O)NCCN2CCN(c3ccccc3F)CC2)cc2c(=O)n(C)c3ccccc3c21	16.7
CCc1ccc(NC(=O)C2CCCN2c2nn3c(=O)cc(C)nc3s2)cc1 (stereo unspecified)	5.2
CC(C)(CO)C(O)C(=O)NCCC#N (stereo unspecified)	5.1
Cc1cc(NC(=O)CSc2c(C)[nH]c3ccccc23)no1	0.9
C=CCn1c(=N)n(CC(O)COc2ccccc2OC)c2ccccc21 (stereo unspecified)	-1.7
CC(=O)NC(CCS(C)(=O)=O)C(=O)Nc1ccc2c(c1)OCO2 (stereo unspecified)	8.4
Next section.
SMILES	Hedgehog cleavage
O=c1ccc2cc(S(=O)(=O)NCc3ccccc3)ccc2[nH]1	3.4
CCC(=O)Nc1sc2c(c1C(=O)OC)CCN(Cc1ccccc1)C2	0.0
CC(C)CCNC(=O)Cn1c2c(c(-c3ccccc3Cl)cc1=O)CCC2	19.1
O=C(CCC(=O)N1CCSc2ccccc21)NCc1ccc(Cl)cc1	5.0
Cc1c(OC(C)C(=O)NCC2CCC(C(=O)O)CC2)ccc2c1oc(=O)c1ccccc12 (stereo unspecified)	1.6
Cn1c(C(=O)N2CCC(C(N)=O)CC2)cc2c(=O)n(C)c3ccccc3c21	17.4
Cc1c(C)c2ccc(OCC(=O)N3CCC(C(=O)O)CC3)cc2oc1=O	10.8
CCOC(=O)C(CC)n1cnc2c(nnn2-c2ccc(F)cc2)c1=O (stereo unspecified)	7.0
COc1cc2c(cc1O)CCN(C(=O)CSc1nncn1C)[C@@H]2C	0.0
O=C(c1cc(-c2cccc(O)c2)on1)N1CCCCC1	8.4
CC1(C)C[C@H]2C3=CCC4[C@@]5(C)CC[C@H](O)[C@](C)(CO)C5CC[C@@]4(C)[C@]3(C)CC[C@@]2(C)[C@H](O)[C@@H]1O (stereo partly specified)	3.5
CCCC(=O)NC(C)c1nc2ccccc2n1CC (stereo unspecified)	0.9
COc1ccc(OC)c2sc(NC(=O)C3COc4ccccc4O3)nc12 (stereo unspecified)	7.2
COc1cc(Nc2cc(C)nc3ncnn23)cc(OC)c1	0.9
Cc1cc(C)c(NC(=O)CN2CCN(C)CC2)c(C)c1	15.4
CCOC(=O)c1cc(S(=O)(=O)N2CCN(Cc3ccccc3)CC2)cn1C	1.7
Cc1cc2c(cc1S(=O)(=O)CCC(=O)NCc1ccccc1)OCC(=O)N2	6.8
COc1ccccc1N1CCN(S(=O)(=O)c2cc(C)sc2C)CC1	13.3
CCc1cc(=O)oc2c3c(cc(OCC(=O)Nc4cccnc4)c12)OC(C)(C)CC3	-3.5
COc1cccc(C2N(c3cccc(Cl)c3)C(=O)C3CCCN32)c1 (stereo unspecified)	20.0
Cc1cc(=O)n2nc(N3CCCC(C(=O)NCc4ccccc4)C3)sc2n1 (stereo unspecified)	5.3
Cc1ccc2oc(=O)c3cnn(CC(=O)N4CCN(c5ccccc5)CC4)c3c2c1	0.0
COc1ccccc1CNC(=O)[C@H](C)NC(=O)C1CCN(C(=O)[C@H](CCSC)NC(=O)OC(C)(C)C)CC1	-3.5
COc1ccc(OC)c(NC(=O)C2CCCN2C(=O)C2CCC(C)CC2)c1 (stereo unspecified)	14.9

Part of the list above, in markdown:
| structure | Hedgehog cleavage |
| --- | --- |
| O=c1ccc2cc(S(=O)(=O)NCc3ccccc3)ccc2[nH]1 | 3.4 |
| CCC(=O)Nc1sc2c(c1C(=O)OC)CCN(Cc1ccccc1)C2 | 0.0 |
| CC(C)CCNC(=O)Cn1c2c(c(-c3ccccc3Cl)cc1=O)CCC2 | 19.1 |
| O=C(CCC(=O)N1CCSc2ccccc21)NCc1ccc(Cl)cc1 | 5.0 |
| Cc1c(OC(C)C(=O)NCC2CCC(C(=O)O)CC2)ccc2c1oc(=O)c1ccccc12 (stereo unspecified) | 1.6 |

Screening results (PubChem BioAssay)

Some of the compounds tested. The share of hits here may be higher or lower than overall.
